ClpP mod = qHTS Assay for Activators of ClpP | ATP-dependent Clp protease proteolytic subunit (Bacillus subtilis (strain 168)), P80244 | purified B. subtilis ClpP, FRET peptide cleavage, 20 min | Potency, µM (highest dose often 57.5 µM), for inactives: at the highest dose activity change, negative = active | hit rate 1.9% among 340,000 | AID 651965, 2013; active = well fitted falling curve with a large enough effect; inconclusive = small, poorly fitted or top-dose-only effect; inactive = no such curve, though single readings can be large or run the other way; further: potency means the concentration at half of the fitted maximal effect; the source files actives as falling curves though it sought activators and does not explain the sign; nearly all actives have a fitted effect of over 65% in size; many hits overshoot -100%
Target sequence (P80244 whole entry, looked up): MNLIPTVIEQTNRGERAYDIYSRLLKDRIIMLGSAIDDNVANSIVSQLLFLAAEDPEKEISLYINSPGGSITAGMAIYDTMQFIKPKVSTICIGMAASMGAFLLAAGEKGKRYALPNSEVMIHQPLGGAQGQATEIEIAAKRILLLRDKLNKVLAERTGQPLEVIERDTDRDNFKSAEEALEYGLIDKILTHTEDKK
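Buffer: 100 mM Tris/HCl pH8, 100 mM KCl, 0.05% low protease BSA, 2.5% glycerol, 0.01% Tween-20. ClpP 10 microg/mL final; 20 min RT; delta FRET normalized to ADEP and DMSO controls.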
gsp antagonist = gsp mutant antagonism; gsp-mutant cells, cAMP HTRF, 30 min; control for the full effect not named in the record; Potency, µM (doses to about 76.9 µM), for the others: at the top dose activity change, negative = inhibition, actives largely listed as inhibitors; hit rate 0.4% among 340,000; AID 624288; active = falling curve of any shape with a large fitted effect; inconclusive = falling curve, mostly with a smaller effect; inactive = flat or rising curve; cell line not stated here;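 further: intracellular cAMP measured with PDE inhibitor Ro 20-1724 present during compound exposure; potency means the concentration at half of the fitted maximal effect; on the % scale 0 is the no-effect control and ±100 the full control effect; nearly all actives have a fitted effect of over 65% in size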
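Cells, 2000/well, grown 16–24 h in DMEM 10% FBS with 0.5 mg/ml G418, then compounds plus […] (300 uM addition stock), 30 min at 37C. cAMP read by HTRF (cAMP-d2 and anti-cAMP antibody-K in lysis buffer) after 30 min RT.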
gsp ag = agonists of gsp mutant (McCune-Albright syndrome); gsp mutant cells, cAMP HTRF, 30 min; control for the full effect not named in the record; Potency, µM (series often up to 76.9 µM), inactives show at the highest dose activation (cAMP increase), actives largely listed as activators; hit rate 0.13% among 340,000; active = well fitted activation curve with a large enough effect; inconclusive = small, poorly fitted or top-dose-only effect, or another doubt; inactive = no such curve, though single readings can be large or run the other way; cell line not stated here;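 further: phosphodiesterase inhibitor Ro 20-1724 added with compounds to block cAMP breakdown; potency means the concentration at half of the fitted maximal effect; nearly all actives have a fitted effect of over 60% in size; about a fifth of the inactives were tested at one dose only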
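Cells stably selected in G418 were plated at 2000/well, grown 16-24 hr, then given compounds in DMSO with the PDE inhibitor […] (300 uM solution added) for 30 min at 37C; cAMP was read by HTRF.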
TRPML1 agonist = agonists of human TRPML1 channel; TRPML1-expressing cells, Ca2+ dye fluorescence, FDSS; host cell line not named in the record; reference of the full effect not given here; activation, % (concentration not given with the values); AID 624414; hit rate 0.12% among 410,000; in the data active = activation above about 50%; inconclusive = about 30% to 50%; inactive = below about 30%; further: 0% is about no effect; the text of the record puts the active cut at 80%
Target sequence (Q9GZU1 whole entry, looked up): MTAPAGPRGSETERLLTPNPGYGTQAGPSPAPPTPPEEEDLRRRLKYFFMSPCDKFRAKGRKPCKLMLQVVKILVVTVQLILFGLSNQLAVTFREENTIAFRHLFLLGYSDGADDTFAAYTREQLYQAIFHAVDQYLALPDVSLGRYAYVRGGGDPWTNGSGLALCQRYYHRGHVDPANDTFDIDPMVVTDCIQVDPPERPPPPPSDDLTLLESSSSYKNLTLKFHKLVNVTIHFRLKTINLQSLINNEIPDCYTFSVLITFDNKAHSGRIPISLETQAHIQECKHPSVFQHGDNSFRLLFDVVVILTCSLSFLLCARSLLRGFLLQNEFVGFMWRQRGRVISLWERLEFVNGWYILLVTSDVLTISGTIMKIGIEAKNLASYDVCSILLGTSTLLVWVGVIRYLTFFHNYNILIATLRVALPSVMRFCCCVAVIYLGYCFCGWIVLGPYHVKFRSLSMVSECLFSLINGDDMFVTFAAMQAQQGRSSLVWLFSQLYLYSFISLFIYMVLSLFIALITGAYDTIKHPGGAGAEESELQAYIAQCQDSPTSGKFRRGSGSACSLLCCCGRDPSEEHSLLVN
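Cells: TRPML1-DL, 1X Tet inducer, ~16 h at 37 degrees C/5% CO2. Dye: ABD Ca8 no-wash + quencher, 45-90 min RT. Read: 10 s baseline, compound add, 110 s agonist phase; 54-4 EC80 (4uM final), 110 s antagonist phase.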
TRPML1 blocker = blocks the human TRPML1 channel; hit rate 0.02% among 390,000; TRPML1-inducible cells, Ca2+ dye fluorescence, FDSS; hits give low values; inhibition of EC80 agonist-evoked calcium signal; Q9GZU1; activity change, negative = inhibition, % (test concentration not listed); AID 624415; in the data active means activity change below about -50%; inconclusive means about -30% to -50%; inactive means above about -30%;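 further: stimulus is agonist 54-4 at its EC80 concentration; on the % scale 0 is the no-effect control and ±100 the full control effect; compound concentration not given in the record; the text of the record puts the active cut at -80%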
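TRPML1-DL cells, Tet-induced overnight (~16 h, 37 °C) at 1,500 cells/well, were loaded with Ca8 no-wash dye plus quencher for 45-90 min at room temperature. Compounds were pinned during FDSS kinetic reading; agonist 54-4 at EC80 (4 uM final) then added.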
Menin MLL FP FL = inhibitors of human menin-MLL interaction, wild-type MLL peptide. Fluorescence polarization, fluorescein-MLL peptide displacement from menin. FP activity change, % at 61.4 µM. 290,000 tested, under 10 active. AID 1766; inconclusive = falling polarisation curve, or a change in total fluorescence; inactive = total fluorescence flat and polarisation flat or rising; no compound was filed as active; the % refers to the polarisation; negative = inhibition;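 further: % of control where 0% means no effect; inhibitors lower the polarisation; unlabelled MLL peptide was the positive control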
* marks the source's active call; other numbers are inactive results; ? = inconclusive; · = no result given; & = joins results of further samples; [ ] = remark or other dose.

SMILES	ClpP mod	gsp antagonist	gsp ag	TRPML1 agonist	TRPML1 blocker	Menin MLL FP FL
Cc1ccnc(NC(=O)c2ccc(Cl)s2)c1	0.9%	-1.3%	0.1%	1.3	-2.1	-1.6
COc1ccc(C(=O)N2CCC(=O)N(C(CO)Cc3ccccc3)CC2)cc1 (configuration not stated)	3.0%	2.1%	-13.0%	-0.5	3.8	-2.7
Cc1oc2c(c1C(=O)c1ccc(Cl)cc1)C(=O)C(=O)c1ccccc1-2	0.4%	56.2µM*	-29.0%	3.0	-6.0	3.5
O=C(CSC1=Nc2ccccc2C2CC=NN12)Nc1ccc2c(c1)OCO2 (configuration not stated)	-1.7%	-19.7%	?	0.6	-1.1	1.3
N#CCCn1cnc2ccccc21	2.0%	12.1%	8.0%	-0.3	55.9	10.2
Cc1cccn2c(=O)c(/C=C(\C#N)S(=O)(=O)c3ccc(Cl)cc3)c(N3CCC(C(N)=O)CC3)nc12	6.8%	-0.5%	?	4.5	26.1	?
CCN(C(=O)c1ccc(=O)[nH]c1)c1c(N)n(Cc2ccccc2)c(=O)[nH]c1=O	-3.1%	7.1%	-2.3%	-0.4	3.4	·
COc1ccccc1C=NN=Cc1ccccc1O	1.1%	-8.4%	6.7%	2.3	13.9	·
Cc1ccc(NC(=O)CN2CCCCCC2)c(Br)c1	-2.6%	11.9%	28.5%	-0.4	4.9	3.2
CC1CCN(C(=O)c2cc(Cl)nc3ccccc23)CC1	-3.3%	9.1%	-4.3%	0.5	10.4	4.6
COc1ccccc1C1(O)C(=O)Nc2ccc(C)cc21 (configuration not stated)	-0.9%	8.6%	2.9%[15.4 µM]	0.1	5.9	9.0
Cc1c(C)c(C)c(S(=O)(=O)NCCc2ccncc2)c(C)c1C	-1.4%	-26.6%	10.4%[15.4 µM]	-1.5	-13.2	6.0
O=C(NCc1ccc2c(c1)OCO2)c1ccc(CS(=O)(=O)Cc2cccc(Cl)c2)o1	-1.0%	-15.8%	-19.2%	3.1	-7.2	4.3
O=C(Nc1ccc(C(=O)OC2CCCCC2)cc1)c1ccncc1	·	-2.6%	-32.6%[inhibitor]	0.0	-6.6	7.3
COc1cc(NC(=O)C/C(C)=N/NC(=O)Cc2ccccc2)c(OC)cc1Cl	-3.6%	9.8%	?	0.2	?	3.3
COc1ccc(-c2cc(C(=O)NCc3ccccc3)c3c(-c4ccccc4)[nH]nc3n2)cc1	?	·	·	0.2	-5.4	·
Cc1ccc(OCC2Cn3c(nc4c3c(=O)[nH]c(=O)n4C)O2)cc1 (configuration not stated)	0.8%	4.5%	?	2.2	37.7	3.1
Fc1cccc(-c2nnn3c2nc(NC2CCCCC2)c2ccccc23)c1	3.8%	·	·	-0.9	-23.1	·
COc1ccc(Oc2ccc(C(F)(F)F)cc2NC(=O)c2ccc(F)cc2)cc1	-0.3%	-9.0%	11.8%[15.4 µM]	-0.4	-12.0	0.6
Cc1nc(NS(=O)(=O)c2ccccc2)sc1NC(=O)OCCN(C)C	-0.5%	6.3%	0.4%	-0.1	0.0	?
COC(=O)C1=C(C)OC(N)=C(C#N)C1c1ccco1 (configuration not stated)	0.3%	2.4%	?	-0.7	5.3	?
CCOC(=O)c1oc2nc(C)c3c(c2c1N)CC(C)(C)OC3	10µM*	-13.3%	14.3%	0.8	-12.5	-0.9
COc1cc(/C=C/C(=O)N2CCCN(C(=O)/C=C/c3cc(OC)c(OC)c(OC)c3)CC2)cc(OC)c1OC	-7.6%	-8.6%	0.0%	1.1	-0.2	0.4
CCN(CC)CCN(C(=O)Cn1nnc(-c2ccc(OC)c(OC)c2)n1)C(C(=O)NC1CCCC1)c1ccc(F)cc1 (configuration not stated)	-4.0%	2.6%	-43.5%[inhibitor]	-0.3	1.8	-0.1
COc1ccc(C2=Nn3c(nnc3-c3cccnc3)SC2)cc1	-1.8%	1.3%	22.5%	0.5	-3.8	0.2
COc1ccccc1-c1cc(-c2ccc(C)cc2)nc(SCc2nnc(-c3ccccc3)o2)c1C#N	-28.5%	5.2%	-1.5%	0.0	18.6	1.3
O=C(CCc1ccccc1)N(Cc1cccnc1)c1nc2c(F)cc(F)cc2s1	-1.9%	·	·	-0.1	-10.1	·
COc1ccc(-c2csc(N(CC3CCCO3)C(=O)c3ccco3)n2)cc1 (configuration not stated)	-4.4%	-9.6%	-20.5%	0.4	-0.7	-0.9
Cc1ccc(S(=O)(=O)CCC(=O)Nc2sccc2C#N)cc1	0.5%	-3.3%	1.9%[15.4 µM]	-0.4	7.0	·
COc1cc(OC)c(S(=O)(=O)Nc2ccc(C(=O)N3CCCC3)cc2)cc1NC(C)=O	·	9.3%	-12.4%	0.0	7.4	-0.1
O=C(O)c1ccccc1Cc1ccc(F)c2ccccc12	-1.0%	·	-10.4%	-0.6	1.1	·
CC(C)CCNC(=O)C12CN(Cc3ccccc3)CC1C(c1ccc([N+](=O)[O-])cc1)=NO2 (configuration not stated)	-0.8%	0.4%	14.0%	-0.1	15.4	2.1
CN1CCN(S(=O)(=O)c2ccc3c(c2)NC(=O)C2CCCN32)CC1 (configuration not stated)	-3.7%	1.5%	-1.9%	-0.3	7.1	0.1
CCN(CC)CCNC(=O)Cc1nn(Cc2ccccc2)c(=O)c2ccccc12	·	·	-15.6%[15.4 µM]	-0.4	-3.5	0.1
COc1ccc(NC(=S)N2CCc3ccccc3C2)cc1OC	-1.0%	4.1%	-22.4%	0.9	-2.4	-2.1
CC(C)C(=O)Nc1cccc(C(=O)Nc2nccs2)c1	-2.3%	-1.0%	-8.1%	0.1	5.5	-0.8
Cc1ccc(S(=O)(=O)Nc2ccc(S(=O)(=O)N3CCOCC3)cc2)cc1[N+](=O)[O-]	·	·	15.9%[15.4 µM]	-0.1	21.8	4.3
COc1ccccc1N(C(=O)CNC(=O)c1ccco1)C(C(=O)NCC1CCCO1)c1ccccc1 (configuration not stated)	·	-6.0%	7.2%[15.4 µM]	0.2	-5.7	·
CCCn1c(N)c(C(=O)CSc2nc3ccccc3c(=O)n2Cc2ccccc2)c(=O)[nH]c1=O	·	-10.9%	-1.5%[15.4 µM]	-0.1	-5.2	5.9
O=C(COC(=O)c1cccc(S(=O)(=O)N2CCN(c3ccccc3)CC2)c1)NCC1CCCO1 (configuration not stated)	·	1.7%	17.0%[15.4 µM]	0.6	11.7	2.9
CCc1cc2c(cc(C(=O)O)n2C)s1	0.5%	-2.3%	3.3%	-0.5	-10.6	0.9
COc1cccc(-c2nc(CS(=O)(=O)CC(=O)NCCc3ccc(OC)cc3OC)c(C)o2)c1	-14.0%&-15.0%	-26.3%	12.9%	3.2&0.8	4.3&-6.3	2.6
Cc1cccc(/C=N\Nc2nnc(-c3ccccc3)c(=O)[nH]2)c1	-125.9%	-7.8%	-2.2%	0.9	0.0	7.4
Cc1cccc(CCNC(=O)C2CCN(S(=O)(=O)c3c(C)nn(C)c3C)CC2)c1	-2.6%	3.8%	-19.0%	-0.5	?	4.0
CCOC(=O)c1cnc2cc(-c3ccc(C)cc3)nn2c1C	-24.8%	·	-11.4%	-0.5	-7.3	·
CCOC(=O)c1cccc(NC(=O)CN(c2ccc(C)cc2)S(=O)(=O)c2c(C)n[nH]c2C)c1	0.5%	?	-48.4%	0.6	12.4	-1.5
CC1=C(C(=O)N2CCN(c3ccccc3)CC2)C2(CCCCC2)OC1=O	0.1%	·	·	0.1	-1.0	·
O=C(NCCCN1CCOCC1)C(=O)N/N=C/c1c(Cl)cccc1Cl	·	13.0%	-17.5%[15.4 µM]	-0.3	13.4	-2.1
CCC(NC(=O)c1ccccc1NC(=O)c1ccc(OC)cc1)C(=O)N1CCCC1 (configuration not stated)	-3.0%	-8.4%	-16.8%	-0.5	-3.8	1.1
N#C/C(=C/c1cn(Cc2ccc(F)cc2)c2ccccc12)C(=O)Nc1cccc(Cl)c1	0.0%	·	·	1.0	19.1	·

Later entries:
SMILES	ClpP mod	gsp antagonist	gsp ag	TRPML1 agonist	TRPML1 blocker	Menin MLL FP FL
Cc1ccc(S(=O)(=O)c2nnn3c2nc(N2CCN(c4cccc(C)c4C)CC2)c2ccccc23)cc1C	6.1%	·	·	-0.2	-15.9	·
CCOc1ccc(-n2c(Cc3cc(=O)[nH]c(=O)[nH]3)nnc2SCC(=O)OC)cc1	-7.5%	3.5%	-11.9%	0.1	12.2	-3.9
Cn1c(SCC(=O)NCCN2C(=O)CSC2=O)nnc1-c1ccccc1	1.3%	9.1%	7.0%	0.9	-21.5	2.3
CCCCOc1ccc(OC(=O)c2sc3ncn(Cc4cccc(F)c4)c(=O)c3c2C)cc1	-0.5%	·	·	-0.5	-4.1	·
Cc1cc(C)n(C(=O)C(C)n2nc([N+](=O)[O-])c(Br)c2C)n1 (configuration not stated)	-14.4%	1.1%	-2.2%[15.4 µM]	-0.8	-0.6	4.2
Cc1cc(NC(=O)C(C)C)ncc1NC(=O)Cc1ccccc1	-1.0%	2.3%	0.0%	0.5	6.1	0.4
CCOc1ccc(NC(=O)N(C2CCCCCC2)C2CCN(C(C)=O)CC2)cc1	-2.2%	5.0%	4.5%	0.8	-6.3	3.8
CCN(c1ccccc1)S(=O)(=O)c1cccc(C(=O)NCc2ccccn2)c1	-2.6%	-8.1%	-10.6%	-0.3	-1.1	·
Cc1ccc(C)c(NC(=O)N2CCN(C(=O)c3nsc4ccccc34)CC2)c1	1.2%	·	·	1.4	-1.2	·
COC(=O)c1ccc(C(NC(=O)OCc2ccccc2)/C(F)=C/[C@@H](C)C(=O)NCc2ccc(-c3ccccc3)cc2)cc1 (some centres not stated)	-2.9%	8.0%	·	-0.3	-6.9	2.9&-0.4
CC(NC(=O)c1ccccc1F)c1ccccc1 (configuration not stated)	-0.5%	14.3%	11.6%	·	·	0.1
COc1ccccc1-n1cnnc1SC1CCOC1=O (configuration not stated)	-19.9%	6.9%	1.1%	0.2	9.5	3.9
CCOc1ccc(C(C(=O)NC2CCCCC2)N(CCOC)C(=O)c2snc(C(N)=O)c2N)cc1 (configuration not stated)	·	-13.5%	?	-0.6	8.6	-2.5
COc1ccc(CNC(=O)/C=C/c2cc([N+](=O)[O-])ccc2OC(F)F)cc1	-0.9%	1.1%	14.0%	3.7	8.2	-0.6
Cc1ccc(NC(=O)CSc2nnc(C)c(=O)[nH]2)cc1	-1.1%	·	·	0.3	-10.3	·
Cc1c(C)c2ccc(O[C@@H]3O[C@H](CO)[C@@H](O)[C@H](O)[C@H]3O)c(C)c2oc1=O	0.3%	6.2%	-0.9%[15.4 µM]	-1.0	24.2	-3.3
CC(Oc1ccc2c3c(c(=O)oc2c1)CCCC3)C(=O)NCC1CCC(C(=O)O)CC1 (configuration not stated)	3.9%	-5.1%	-17.4%	0.4	7.3	1.6

High-throughput results deposited in PubChem BioAssay by National Center for Advancing Translational Sciences (NCATS).
